NPYLR7 agonist = agonists of mosquito NPYLR7 receptor, primary screen, cell-based, Aedes aegypti, calcium fluorescence, mosquito biting behavior | HEK293T NPYLR7/Galpha15, GCaMP6s calcium fluorescence | activation, % at 10 µM | hit rate 0.15% among 270,000 | AID 1259423, 2018; in the data active = activation above about 40%;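 also: 0% = vehicle and 100% = reference agonist at the receptor; some compounds past the cut are filed as inactive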
NPYLR7 agonist max-min = recorded beside NPYLR7 agonist, whose call it bears; activation, %; measured here: Max-Min RFU normalised activation; some inactives read as strong as hits;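 span of the calcium signal over five minutes; 0% = vehicle and 100% = native peptide agonist; compound fluorescence can raise it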
An asterisk follows results filed as active. This is a subset; the hit share may differ from the screen's.

Every second line gives: NPYLR7 agonist | NPYLR7 agonist max-min
> Cc1nc(SCc2ccc(C(=O)NCC3CC3)cc2)nc(N2CCN(c3ccccc3F)CC2)c1C
→ 9 | 12
> COCCN(Cc1cccc(OC)c1)Cc1ccc(C(O)(CC2CCC2)CC2CCC2)o1
→ 12 | 14
> CCC(C)C(NC(=O)c1ccc(Cl)c([N+](=O)[O-])c1)C(=O)Nc1nnc(-c2cccc(OC)c2)s1 (stereo not given)
→ -10 | -3
> CCCCOC(=O)C1=C(C)NC2=C(C(=O)CCC2)C1c1ccccc1OCCCC (stereo not given)
→ 1 | -13
> CC(=O)O[C@H]1C[C@@H](O)C(C)(C)C2C[C@@H](OC(C)=O)[C@]3(C)C(CC[C@@]4(C)[C@H](c5ccoc5)OC(=O)C5OC543)[C@]21C (stereo not given in full)
→ -5 | -7
> O=C(Nc1ccccc1F)c1csc(CSc2nnc(-c3ccncc3)n2-c2cccc(Cl)c2)n1
→ -10 | -5
> CCCCSc1nnc2c(n1)OC(c1cc3c(cc1Br)OCO3)Nc1ccccc1-2 (stereo not given)
→ 3 | -2
> Cc1cc(=O)n2ccccc2c1C#N
→ -1 | -2
> CC(C)(NC(=O)c1cccs1)C(=O)NCc1csc(N)n1
→ 11 | 1
> O=C(c1ccc(Cl)cc1)N1[C@@H](c2ccco2)[C@@H](CO)C[C@]12CCCCN(CCO)C2=O
→ 6 | 17
> Cc1ccc(C(N)=O)cc1/C=C/c1ccccc1
→ -2 | 5
> COC(=O)c1sc2nc(CN3C[C@@H](C)O[C@@H](C)C3)ccc2c1NC(=O)C1CCCCC1
→ 14 | 9
> C=CC[C@@H]1CC=C[C@@H](C)N1C(=O)CC1(c2cccc(C(F)(F)F)c2)CC(=O)N(C2CC2)C1=O (stereo not given in full)
→ -2 | -8
> O=[N+]([O-])c1cccc(CSc2ccc3nnc(-c4cccs4)n3n2)c1
→ 0 | 0
> c1cnc2c(SCC3CCOCO3)cccc2c1 (stereo not given)
→ -4 | -6

Ordered by heavy-atom count (low to high): 6 of the compounds above
Every second line gives: NPYLR7 agonist | NPYLR7 agonist max-min
> CC(C)(NC(=O)c1cccs1)C(=O)NCc1csc(N)n1
→ 11 | 1
> O=[N+]([O-])c1cccc(CSc2ccc3nnc(-c4cccs4)n3n2)c1
→ 0 | 0
> CCCCOC(=O)C1=C(C)NC2=C(C(=O)CCC2)C1c1ccccc1OCCCC (stereo not given)
→ 1 | -13
> COC(=O)c1sc2nc(CN3C[C@@H](C)O[C@@H](C)C3)ccc2c1NC(=O)C1CCCCC1
→ 14 | 9
> CCC(C)C(NC(=O)c1ccc(Cl)c([N+](=O)[O-])c1)C(=O)Nc1nnc(-c2cccc(OC)c2)s1 (stereo not given)
→ -10 | -3
> O=C(Nc1ccccc1F)c1csc(CSc2nnc(-c3ccncc3)n2-c2cccc(Cl)c2)n1
→ -10 | -5

4 entries drawn at random from the list so far:
Every second line gives: NPYLR7 agonist | NPYLR7 agonist max-min
> O=C(Nc1ccccc1F)c1csc(CSc2nnc(-c3ccncc3)n2-c2cccc(Cl)c2)n1
→ -10 | -5
> Cc1ccc(C(N)=O)cc1/C=C/c1ccccc1
→ -2 | 5
> c1cnc2c(SCC3CCOCO3)cccc2c1 (stereo not given)
→ -4 | -6
> Cc1cc(=O)n2ccccc2c1C#N
→ -1 | -2

Additional entries
Every second line gives: NPYLR7 agonist | NPYLR7 agonist max-min
> Cc1ocnc1C(=O)N1CCC(N2CCCC(C(=O)N3CCOCC3)C2)CC1 (stereo not given)
→ 3 | 1
> CCc1ncc(C(=O)NCCN2CCCOC2=O)cn1
→ -7 | -18
> COc1ccc(/C=N\OCC(=O)N2CC3(C)CC2CC(C)(C)C3)cc1 (stereo not given)
→ 7 | 5
> Cc1cnc(C(=O)N(CCC#N)C2CC2)cn1
→ 14 | 10
> CCN(CC)S(=O)(=O)c1ccc2c(c1)nc(SCc1ccc(Cl)s1)n2Cc1ccco1
→ -10 | -12
> O=C(NC1CC1)C1CCCN(C2CCN(C(=O)c3cnccn3)CC2)C1 (stereo not given)
→ 12 | 7
> Cc1nc(NCCSc2nnnn2C)cc(C(C)C)n1
→ 20 | 12
> CC(C)CN(CC(=O)N(Cc1ccc(F)cc1)Cc1ccco1)C(=O)Nc1cccc(F)c1
→ -9 | -9
> OC12CC3C[C@H](C1)C(Nc1ccccc1)[C@@H](C3)C2 (stereo not given in full)
→ -5 | -8
> COC(=O)c1[nH]ncc1CN1CCCC1c1ccc(F)cc1 (stereo not given)
→ -4 | -3
> O=C(Nc1ccccc1)O/N=C/c1ccncc1
→ -5 | -2
> CCOc1ccc(NC(=O)CN2CCc3[nH]c4ccc(Cl)cc4c(=O)c3C2)cc1
→ -1 | 3
> Cc1ccccc1/C=C/c1nc(SCC(=O)NC(C)(C#N)C2CC2)n[nH]1 (stereo not given)
→ 2 | -12
> CC(C)CN1CCOC(CNC(=O)c2ccc3ncsc3c2)C1 (stereo not given)
→ 0 | -2
> COc1cc(CNc2c(-c3ccc(OC)c(OC)c3)cnc3ncnn23)cc(OC)c1
→ 21 | 12

(cont.)
Every second line gives: NPYLR7 agonist | NPYLR7 agonist max-min
> COc1ccc(-c2cc(NC(=O)c3cccc(C(F)(F)F)c3)n(-c3cc(Cl)ccc3Cl)n2)cc1
→ 5 | 0
> COc1cccc(CC2(CO)CCCN(CCCn3cccn3)C2)c1 (stereo not given)
→ 13 | 18
> COc1ccc(N2CCC(N(C)C(=O)Nc3ccncc3)CC2)cc1
→ -1 | 2
> O=C(CSc1nc(-c2ccccc2)c(NC(=O)C2CC2)s1)NC1CC1
→ -8 | -13
> COc1ccc(N2CCN(C(c3ccco3)C3Sc4ncnn4C3=O)CC2)cc1 (stereo not given)
→ 4 | 3
> C#CCn1c(O)c(N=NC(=O)CNC(=O)C(c2ccccc2)c2ccccc2)c2ccccc21
→ -5 | -10
> O=C(NC1CCCCC1)c1ccc(=O)[nH]n1
→ 10 | 13
> CCCc1cc(N2CCCC2)n2ncc(-c3ccccc3)c2n1
→ 3 | 1
> COc1ccccc1C(=O)N1CCN(Cc2cnn3cccnc23)CC1
→ 13 | 5
> Cc1nc(N2CCOCC2)c2c3c(sc2n1)CCCC3
→ 2 | 1
> CN1C(=O)CC(N2CCN(C/C=C\c3ccccc3)CC2)C1=O (stereo not given)
→ 3 | 0
> COc1cccc(C(=O)N2CCN(c3cc(Oc4ccc(F)c(Cl)c4)ncn3)CC2)c1
→ -1 | 4
> COCCN(CC(=O)N(Cc1ccccc1)Cc1sccc1C)C(=O)c1cccc([N+](=O)[O-])c1
→ 5 | 6
> CCOc1cc(C2C(C#N)=C(C)NC3=C2C(=O)CC(c2ccccc2)C3)ccc1OC(C)=O (stereo not given)
→ -7 | -11
> Cc1cc(C)cc(C(C)NC(=O)NCCC(=O)NC(C)C)c1 (stereo not given)
→ 9 | 6

Next part
Every second line gives: NPYLR7 agonist | NPYLR7 agonist max-min
> Clc1ccc(-c2nc(-c3ccccn3)no2)cc1Cl
→ 0 | -2
> O=C(c1ccc(CN2C(=O)c3ccccc3C2=O)cc1)N1CCCC(N2CCNC2=O)C1 (stereo not given)
→ 5 | 2
> Cc1nc(CNC(C)(C)c2nc(C)c(C)s2)oc1C
→ 8 | 4
> CN1OCC(S(=O)(=O)Oc2c(F)c(F)c(F)c(F)c2F)C1c1ccc(Cl)cc1Cl (stereo not given)
→ 21 | 11
> Cc1cc(C)cc(NC(=O)CC(=O)NCCCn2cc(C)cn2)c1
→ 7 | 4
> COc1ccnc(C(=O)Nc2cc(C)c(Br)cn2)c1
→ -11 | -10
> C#CCNC(=O)NCc1ccccc1CC
→ 0 | -9
> CC(C)CCNC(=O)C(C)n1ncn2cccc2c1=O (stereo not given)
→ 5 | 1
> O=C(CCCn1cnc2ccccc2c1=O)N[C@@H]1CNC[C@H]1O
→ 2 | -1
> CCc1cc(N2CCN(c3ccccc3F)CC2)nc(SCc2ccc(C(=O)NCc3ccco3)cc2)n1
→ 18 | 12
> N#CCSc1nccc2c(OCc3ccc(F)cc3)cccc12
→ 1 | 0
> CC1(C)CN(CC(=O)NC2(C#N)CCCC2)CCS1=O (stereo not given)
→ 0 | -2
> CC1Cc2cc(C(=O)N(C)Cc3ccc(Cl)cc3Cl)ccc2N1S(C)(=O)=O (stereo not given)
→ 5 | 9
> CNC(=O)Cc1ccc(-c2cc(OC)ccc2F)cc1
→ 6 | 5
> CCCN(CCC)C(=O)c1cc2c(=O)n3cccc(C)c3nc2s1
→ 8 | 1

Remaining list, next part:
Every second line gives: NPYLR7 agonist | NPYLR7 agonist max-min
> CC(=O)c1ccc(NC(=O)N2CCc3ccccc3C2c2ccc(Cl)cc2)cc1 (stereo not given)
→ 5 | 12
> Cc1cc(C)c(NC(=O)CN(C)Cc2cc(F)cc3c2OCOC3)c(C)c1
→ 3 | 9
> O=C(NCc1ccco1)c1cccc(Nc2c(Oc3ccc(F)cc3)cnn(-c3ccc(F)cc3)c2=O)c1
→ 15 | 12
> O=C(CCC(F)(F)F)N1CCc2onc(-c3ccc(F)c(F)c3)c2C1
→ 10 | 9
> Cc1cc(C2=NNC(=NCC3CCCO3)SC2)c(C)n1Cc1cccs1 (stereo not given)
→ 10 | 6
> Cc1noc(C)c1CSc1nc2cc(S(=O)(=O)N3CCOCC3)ccc2n1CCCN1CCOCC1
→ 4 | 1
> COC(=O)c1ccc(NC(=O)CCN2C(=O)c3cccc([N+](=O)[O-])c3C2=O)cc1
→ -3 | -9
> COc1ccc(CCC(=O)Nc2cc(C)nn2-c2nc(C)cc(=O)[nH]2)cc1
→ 8 | -1
> CC(NC(=O)Cc1csc(-c2ccsc2)n1)c1ccccc1Br (stereo not given)
→ 2 | 4
> CCCCNCC(=O)N(Cc1ccccc1)Cc1ccco1
→ 18 | 24
> Cc1c(C(=O)N2CCN(C(=O)c3ccco3)CC2)cc(-c2ccc(Cl)cc2)n1-c1cccc(F)c1
→ -1 | 6
> Cc1cccc(C(C(=O)NCCc2n[nH]c3c2CCCC3)N(C)C)c1 (stereo not given)
→ -1 | -2
> O=C(Nc1nccs1)c1ccc(S(=O)(=O)N(Cc2ccco2)C2CC2)o1
→ -3 | -8
> Cc1ccc2c(c1)CCC2NC(=O)c1c(C)noc1C (stereo not given)
→ -20 | -23
> FC(F)(F)c1nc(N2CCOCC2)c2cnn(-c3ccccc3)c2n1
→ 8 | 7

Carrying on.
Every second line gives: NPYLR7 agonist | NPYLR7 agonist max-min
> CC(C(=O)N1CCC(CCC(=O)NCc2cccc(Cl)c2)CC1)n1cncn1 (stereo not given)
→ 3 | -2
> Fc1cc(F)c(F)c(SCc2csc(-c3ccc(Cl)cc3)n2)c1F
→ 14 | 17
> N#Cc1ccc(NC(=O)c2ccccn2)c(C(F)(F)F)c1
→ 13 | 11
> CCCCc1ccc(C(=O)Nc2c(-c3ccc(OC)cc3)nc3cc(C)ccn23)cc1
→ -9 | -5
> COc1ccc(-n2nc(C(=O)Nc3cccc(F)c3)c(=O)n(Cc3ccccc3C)c2=O)cc1
→ 17 | 17
> OCCN1CCN(CC/C=C2/c3ccccc3Sc3ccc(Cl)cc32)CC1
→ 9 | -4
> O=C(Nc1cc(-c2ccco2)nn1-c1ccc(C(F)(F)F)cc1)c1ccccc1
→ 19 | 7
> Cc1c(-n2nnnc2SC(C)C)c(=O)n(-c2ccccc2)n1C
→ 6 | 1
> N#CCCN(CC(O)c1cccc(Cl)c1)C1CC1 (stereo not given)
→ 0 | -3
> Cc1ccccc1NC(=O)N1C[C@@H](O)[C@H](NCCN2CCOCC2)C1
→ 5 | 1
> Cc1ccc(NC(=O)CSc2nnc(CCC(=O)O)c(=O)[nH]2)cc1
→ 1 | 6
> N#Cc1ccc(C=C2N=C(c3cccs3)OC2=O)cc1
→ -1 | -2
> Cc1[nH]c(=O)n(C)c(=O)c1CCC(=O)Nc1ccc(C(C)C)cc1
→ -8 | -14
> COc1ccccc1-c1nc(CN2CCNC(=O)C2)cs1
→ -3 | -4
> Cc1cccc(C)c1Cn1c(C)c(C(=O)NCCC#N)sc1=O
→ 9 | 5

Single entries from above.
CC(=O)c1ccc(NC(=O)N2CCc3ccccc3C2c2ccc(Cl)cc2)cc1 (stereo not given) – NPYLR7 agonist = 5
O=C(CCCn1cnc2ccccc2c1=O)N[C@@H]1CNC[C@H]1O – NPYLR7 agonist = 2

Other entries
Every second line gives: NPYLR7 agonist | NPYLR7 agonist max-min
> Cc1ccccc1Cn1c(C)c(C(=O)NCc2ccc([N+](=O)[O-])cc2)sc1=O
→ 44 | 27
> CC(C)(C)C(=O)Cn1nc(Br)nc1Br
→ 6 | 1
> CCn1nnnc1NCc1cccn1C
→ 10 | 0
> Cc1ccc(-c2c(-c3nn(C)c4ncnc(N5CC[C@H](N6CCCCC6)C5)c34)cnn2C)cc1
→ -6 | -11
> c1ccc(-c2noc(CN3CCc4[nH]cnc4C3c3ccccn3)n2)cc1 (stereo not given)
→ 5 | 3
> O=C(Cc1ccc(NS(=O)(=O)c2cccnc2)cc1)N1CCCC1
→ -1 | -3
> Cc1ncc([N+](=O)[O-])n1CCN1C(=O)CC(c2ccccc2)C1=O (stereo not given)
→ -7 | -14
> CCOc1ccc(CN2CCNC(=O)C2CC(=O)N(C)Cc2nccs2)cc1 (stereo not given)
→ 3 | 4
> Cn1c(=O)c2c(nc3n2CC(c2ccc(F)cc2)=NN3Cc2cccc(Cl)c2)n(C)c1=O
→ 4 | 9
> Cc1cc(C)c2[nH]c(=O)c(-c3nccn3CCc3cn[nH]c3)cc2c1
→ 5 | 4
> CC(C)NCC(N)=O
→ 9 | 11
> Cc1[nH]c2c(C(=O)N3CC(=O)N(Cc4cnn(C)c4)CC(OCc4cccnc4)C3)cccc2c1C (stereo not given)
→ 21 | 7
> CCOC(=O)[C@@H]1[C@@H](O)C(=O)N(C)C12CCN(C(=O)c1cc3ccccc3s1)CC2
→ 27 | 30
> CCN(CC)C(=O)c1ccc(/C=C/c2ccccc2)o1
→ -1 | 1
> COC(=O)CCN1C(=O)C2Cc3ccccc3CN2C1=O (stereo not given)
→ -2 | -1
> COc1c(Cl)cc(Cl)cc1C(=O)N1CC[C@H](O)[C@@H](O)C1
→ 5 | 2
> COC(=O)C1C(O)=C(C=Nc2ccc(Br)cc2)C(=O)CC1(C)C (stereo not given)
→ -1 | -2

High-throughput results from PubChem BioAssay.
